# MgrA DNA FP = modulators of Staphylococcus aureus MgrA DNA binding; fluorescence polarization; inhibition, %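 (about 10 µg/mL by stock and volumes)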; 0.13% of 84,000 active; AID 602314;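 active means above 50% in either of two replicates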;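 further: 0% = protein plus DNA without compound and 100% = DNA alone without protein; higher means less MgrA bound to DNA so lower polarization; one replicate is shown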
# Sa helicase inh = blocks Staphylococcus aureus DNA helicase | 0.05% of 120,000 active | inhibition, %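 (tested at about 80 µM)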 | purified S. aureus helicase, fluorescence unwinding assay; about half of the hits fall short of the stated cut;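 active means both duplicates at 50% or more, or one of them with a favoured structure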;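 further: 0% = mean of negative control wells and 100% = mean of positive control wells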
# * = called active by the depositor; . = not tested or not shown. Only part of the results is shown; the hit share may differ from the screen's.
Molecule	MgrA DNA FP	Sa helicase inh
Brc1cc(Br)c2c(c1)C=C1CCCCCC1(N1CCOCC1)O2 (stereo not given)	1.3	9
Nc1nc(COc2ccccc2Cl)ncc1S(=O)(=O)c1ccccc1	-0.8	.
CCOC(=O)c1cn2c3c(ccc(C)c3c1=O)OC(CC)C2 (stereo not given)	-1.9	8
Cc1ccc(N2C(=S)NC3c4cc(Cl)ccc4OC2(C)C3C(=O)Nc2ccc(C)cc2C)cc1 (stereo not given)	6.7	7
Nc1cc(C(F)(F)F)ccc1NCCc1ccccn1	-0.1	.
O=C(CCCn1c(=O)c2sccc2n(CC(=O)c2ccccc2)c1=O)NCc1ccc2c(c1)OCO2	.	2
O=C1C2C3C=CC(C3)C2C(=O)N1CCN1CCN(S(=O)(=O)/C=C\c2ccccc2)CC1 (stereo not given)	3.7	.
Cn1c(N)c(C(=O)CSc2nnc(C3CC3)n2-c2ccccc2)c(=O)[nH]c1=O	.	2
CC(=O)Nc1ccc(NC(=O)c2cccc(N(C)C)c2)cc1	.	0
CC(C)NC(=O)c1ccc(CS(=O)c2ccc(Cl)cc2)o1 (stereo not given)	.	6
Cc1noc2ncn(CC(=O)N3CCC(C)CC3)c(=O)c12	.	13
CCOC(=O)N1CCC(Nc2nc3ccccc3c3nnc(C)n23)CC1	.	-33
COc1ccc(CNC(=O)c2c[nH]c3ccccc23)cc1	-2.1	.
COC(=O)/C(=C/N(C)C)NC(=O)c1ccccc1	.	21
O=C1COc2ccc(C(=O)COC(=O)c3cccc(S(=O)(=O)N4CCCCC4)c3)cc2N1	.	10
COc1ccccc1CNC(=O)c1cccc(F)c1	.	2
COc1cccc(CN(C)C(=O)c2ccc3c(c2)NC(=O)CS3)c1	.	0
N/C(Cc1nc(-c2ccc(Cl)cc2)cs1)=N\O	4.3	.
CCOC(=O)c1sc(Nc2ccc(C)cc2C)nc1C	1.6	4
O=C(CCCn1sc2ccccc2c1=O)NCc1cccs1	2.5	34
CN1C(=S)N(c2ccc(Cl)cc2)C(=O)/C1=C/c1ccccc1O	0.7	-2
FC(F)(F)c1ccc(Sc2n[nH]c(C(F)(F)F)n2)nc1	-0.1	.
Nc1ccc2c(c1)OC1(CCCCC1)O2	4.0	2
COc1cc(NC(=O)C(C)OC(=O)C23CC4CC(CC(NC(C)=O)(C4)C2)C3)cc(OC)c1 (stereo not given)	.	11
COc1ccccc1NC(=O)COC(=O)Cc1cccc2ccccc12	-0.7	-14
c1cncc(-c2noc(-c3cccs3)n2)c1	2.4	-3
O=C1c2ccccc2CCC1C(O)c1ccccn1 (stereo not given)	.	7
Cn1c2c(c3c1CCCC3)CCCC2	0.2	.
CCOc1ccc(N2C(=O)CN(CC(=O)OC)C2=S)cc1	.	36
COc1ccc2nc(N3CCCCC3)c(/C=C3\SC(=S)NC3=O)cc2c1	3.7	-15

# More structures follow:
Molecule	MgrA DNA FP	Sa helicase inh
CCCCCCCCCCCCCCCC(=O)C1=C(O)C(CO)OC1=O (stereo not given)	0.1	.
COC(=O)C(C)Sc1ncnc2c1cnn2-c1ccccc1 (stereo not given)	.	3
COc1cccc(C(O)c2nc3ccccc3n2C(C)C)c1OC (stereo not given)	.	15
COc1ccc(C2CC(=O)C3=C(C2)NC(C)=C(C(=O)OC(C)C)C3c2ccc(OC)c(OC)c2)cc1 (stereo not given)	0.3	.
CC(=O)c1c(O)c2ccccc2n(C)c1=O	3.5	.
COc1ccc(C2C(C#N)=C(N)OC3=C2C(=O)CC(C)(C)C3)cc1COc1ccc(Cl)cc1 (stereo not given)	-1.5	.
O=C(Nc1ccccc1C(F)(F)F)N1CCCC1c1cccnc1 (stereo not given)	0.0	.
O=C(NCCN1CCOCC1)Nc1ccccc1-c1ccccc1	-1.2	21
CN(C)CC#CC1(O)CCCCC1	-2.2	3
O=C(CN1CCOCC1)NNc1nc(-c2ccccc2)c2cc(Cl)ccc2n1	-2.4	7
CSc1nc(-c2ccco2)cc(C(F)(F)F)c1C#N	-2.4	4
CCOc1ccc(NC(=O)C2NC(=O)CC2c2ccccc2)cc1 (stereo not given)	.	10
CCn1nccc1C(=O)Nc1ccc(Cl)cc1Cl	.	29
CC(Sc1nc(-c2ccccc2)c(C#N)c(=O)[nH]1)C(=O)Nc1ccccc1 (stereo not given)	.	1
COc1cc(NC(=O)c2c(-c3ccccc3Cl)noc2C)cc(C(F)(F)F)c1	-0.8	.
COc1ccc(C2=NOC(C(=O)N3CCN(C)CC3)C2)cc1 (stereo not given)	.	-10
CCOC(=O)c1c(C2CC2)csc1N	-0.3	-1
O=C1/C(=C/C2CCCCC2)CCCc2ccccc21	2.8	.
CN(C)C(CNC(=O)c1ccccc1C(F)(F)F)c1ccco1 (stereo not given)	.	7
COC(=O)c1ccccc1NC(=O)c1ccoc1C	9.7	6
CC(=O)NC1C(OCc2ccccc2)OC(CO)C(O)C1OCc1ccccc1 (stereo not given)	.	7
Cc1csc2nc(CSc3nnc(-c4cc5c(s4)CCC(C)C5)o3)cc(=O)n12 (stereo not given)	.	-8
CCC(=O)N1c2ccccc2-c2nnc(SC)nc2OC1c1ccccc1F (stereo not given)	.	17
Cc1cnc(SCc2cnc(C)nc2N)nc1	-0.8	-3
CC1CCCC(C)N1C(=O)COC(=O)CCc1ccccc1 (stereo not given)	-1.6	6
O=C(Oc1ccc(-c2ccccc2)c(F)c1)c1ccco1	1.5	.
O=C(c1cnn2c1NC(c1cccs1)CC2C(F)(F)F)N1CCN(C(c2ccccc2)c2ccccc2)CC1 (stereo not given)	1.3	.
O=C(NCc1csc(-c2cccs2)n1)c1cccc2c1OCCCO2	-0.5	.
Cc1ccc(CCC(=O)Nc2ccc(C(=O)O)cc2)o1	.	5
NC(=O)CSc1nnnn1-c1ccccc1	-2.3	1

# Of the compounds above, 6 contain a furan ring, fused or not.
Molecule	MgrA DNA FP	Sa helicase inh
CC(C)NC(=O)c1ccc(CS(=O)c2ccc(Cl)cc2)o1 (stereo not given)	.	6
CSc1nc(-c2ccco2)cc(C(F)(F)F)c1C#N	-2.4	4
CN(C)C(CNC(=O)c1ccccc1C(F)(F)F)c1ccco1 (stereo not given)	.	7
COC(=O)c1ccccc1NC(=O)c1ccoc1C	9.7	6
O=C(Oc1ccc(-c2ccccc2)c(F)c1)c1ccco1	1.5	.
Cc1ccc(CCC(=O)Nc2ccc(C(=O)O)cc2)o1	.	5

# (cont.)
Molecule	MgrA DNA FP	Sa helicase inh
CCOC(=O)c1c(NC(=O)c2ccc(C)cc2)sc(C(=O)Nc2cc(C(F)(F)F)ccc2Cl)c1C	-2.5	.
CCn1c(C)c(CCC(=O)O)c(=O)n2nc(-c3ccccc3OC)cc12	.	5
CC1=NC(C(F)(F)F)(C(F)(F)F)N=C(N(C)C)O1	2.1	6
CCC(=O)NCCCc1nc2ccccc2n1Cc1ccccc1	0.3	-1
CC1=C(C(=O)Nc2ccccc2C(=O)N2CCCCC2)SCCO1	.	15
CCOC(=O)c1cnn(-c2ccccc2)c1NC(=O)CSc1nc2ccccc2o1	.	11
O=C1COCC(=O)N1c1ccc(F)cc1F	-0.8	.
COCP(=O)(c1ccccc1)c1ccccc1	.	13
Cc1cc(Cl)ccc1OCC(=O)NC1(C#N)CCCCC1	.	-4
CCc1ccc(NC(=O)c2sccc2-n2cccc2)cc1	0.6	6
CC(/C=C/c1ccco1)=N/NC(=O)Cc1cccs1	2.4	-4
c1csc(-c2csc3ncnc(NC4CCCC4)c23)c1	1.5	-3
Cc1c(O)ccc(C(=O)CN2CCN(c3ccc(F)cc3)CC2)c1O	.	5
O=C(NN1C(=O)CSC1=S)c1ccc(F)cc1	.	-18
CCc1ccccc1NNC(=O)c1cc(C)on1	.	0
c1ccc(CCN2CCc3nc(N4CCN(c5ccccc5)CC4)ncc3C2)cc1	.	1
CCC1=[N+]([O-])C(C)(/C(C)=N\O)N(O)C1(C)C (stereo not given)	1.5	-2
O=[N+]([O-])c1ccc(Oc2ccc(Cl)cc2)nc1	-1.7	.
Cc1ccc(S(=O)(=O)N2Cc3ccccc3CC2C(=O)Nc2cccc3ccccc23)cc1 (stereo not given)	1.6	-9
O=C(O)CCc1cc(=O)[nH]o1	-0.2	-6
COc1ccc(N=c2oc3cc(OC(C)=O)ccc3cc2C(=O)NC(C)=O)cc1	3.3	.
COc1ccc(NC(=O)Cn2c(=O)n(CCc3ccccc3)c(=O)c3cccnc32)cc1	.	-11
CN(Cc1ccccc1)C(=O)CC(=O)N(C)Cc1ccccc1	0.1	3
CC(C)(C)n1nc2c(c1NC(=O)c1ccc(Cl)cc1)CSC2	2.5	0
COC(=O)c1cn[nH]c1NC(=S)Nc1ccccc1C	.	19
COc1cc(C2C3=C(CC(C)(C)CC3=O)OC3=C2C(=O)CC(C)(C)C3)ccc1OCc1ccc(F)cc1	-2.7	.
Cc1ccc2nc(C)oc(=O)c2c1	-3.7	.
COc1ccc(N2CCN(Cn3cnc4ccccc43)CC2)cc1	.	-6
COc1ccc(CCNC(=O)c2oc3ccc4c(c3c2C)C(O)CC(C)(C)O4)cc1OC (stereo not given)	.	24
O=C(Nc1ccccc1N1CCCC1)C1COc2ccccc2O1 (stereo not given)	.	8

# (next part)
# Order of values: MgrA DNA FP | Sa helicase inh
COc1ccccc1NC(=O)/C=c1\[nH]c(=O)/c(=C\c2ccc(C#N)cc2)s1
→ . | -224
O=C(C[n+]1ccccc1)Nc1ccccc1
→ 0.8 | 7
O=C(NCc1cccs1)C(Cc1ccccc1)NS(=O)(=O)c1cccc2nsnc12 (stereo not given)
→ . | -33
Cc1ccc(CNc2ncnc3c2nc2n3CCCCC2)cc1
→ -1.2 | 1
Cc1cc(C)c2oc(-c3cccc(NC(=O)c4ccc(Br)o4)c3C)nc2c1
→ . | -22
CC(C)(C)NC1CCCCC1NS(=O)(=O)c1ccc(Cl)cc1 (stereo not given)
→ . | 18
Cc1ccc(S(=O)(=O)Nc2c(-c3ccccc3)c3cc(C)ccc3[nH]c2=O)cc1
→ . | 4
CCCCCCCCOc1ccc(/C=C(\C#N)c2nc(-c3cc4ccccc4oc3=O)cs2)cc1
→ 2.4 | .
Nc1cccc[n+]1CC(=O)[O-]
→ . | -6
Cn1nnc2cc(NC(=O)NCc3ccco3)ccc21
→ 1.4 | 13
C#CCNC(=O)Nc1ccccc1OC
→ . | -11
CCOC(=O)C1CCCN(Cn2ncn(C)c2=S)C1 (stereo not given)
→ . | -14
COc1ccc2c(c1)c1ccccc1n2C
→ 4.8 | 6
COc1ccc(-c2ccc(/C=C3\C(=O)N(c4ccc(Br)cc4)N=C3C)o2)c([N+](=O)[O-])c1
→ -1.0 | .
CC(=O)Nc1cc(C(=O)N2CC(C)CC(C)C2)ccc1Sc1ccc(Cl)cc1 (stereo not given)
→ -0.6 | 4

# Continuation.
# Order of values: MgrA DNA FP | Sa helicase inh
O=[N+]([O-])c1cccc(/C=C/c2ccccn2)c1
→ -1.4 | .
O=C(NCc1cccnc1)c1cc(Nc2cccc(C(F)(F)F)c2)nc2ccccc12
→ 0.8 | 9
COCc1cc(=O)[nH]c(-c2ccc(C(F)(F)F)cn2)n1
→ . | -14
O=c1[nH]c(-c2cc(Br)cs2)nc2ccc(Cl)cc12
→ -2.8 | .
Cc1cc(OC(=O)c2ccccc2)n(-c2ccccc2)n1
→ 0.1 | .
COc1ccc(-c2sc(C(=O)O)cc2C)cc1
→ 1.6 | -18
COCCNC(=O)c1nc2c(nnn2Cc2cc(C)ccc2C)c(=O)[nH]1
→ 3.3 | 10
O=C(CCc1nc2ccccc2o1)Nc1cccc(-n2cnnn2)c1
→ . | -1
CCn1cc(C(=O)O)c(=O)c2cc(F)c(N3CCN(C(C)=O)CC3)cc21
→ . | -11
CCSc1nc2ccccc2n1C(CC(=O)O)C(=O)O (stereo not given)
→ -2.7 | 7
Cn1nc2n(c1=O)-c1ccccc1SC2
→ . | 29
COc1cc(NC(=O)c2ccco2)c(OC)cc1NC(=O)CCC(=O)NC1CCN(Cc2ccccc2)CC1
→ 0.8 | 9
Cc1cccc(N(C)c2cc(C)nc3nc(C)nn23)c1
→ . | 8
O=S(=O)(NC1CCCCC1Nc1ccccc1)c1ccccc1 (stereo not given)
→ . | -22
CCc1cc(-c2nc(N)ncc2-c2ccc(OC)cc2)c(O)cc1OC
→ . | 3

# Full records, quoted from the list.
# CCSc1nc2ccccc2n1C(CC(=O)O)C(=O)O (stereo not given) as listed: MgrA DNA FP: -2.7; Sa helicase inh: 7
# O=[N+]([O-])c1cccc(/C=C/c2ccccn2)c1 as listed: MgrA DNA FP: -1.4; Sa helicase inh: .

# Following part.
# Order of values: MgrA DNA FP | Sa helicase inh
CCN(CC)S(=O)(=O)c1ccc2c(c1)nc(-c1ccccc1)n2C
→ . | -1
Cc1cccc(N=Nc2c(C)[nH]n(C(N)=S)c2=O)c1
→ . | -9
CC(C#N)Oc1ccc(Cl)cc1Cl (stereo not given)
→ 0.8 | .
COc1ccc(Cl)cc1N=C(C#N)C1=C(O)c2ccccc2C1=O
→ 0.5 | .
O=C(O)c1cccnc1Sc1cccc(C(F)(F)F)c1
→ . | -8
CCCc1cc(=O)[nH]c(SCC(=O)N(CC(C)C)C2CCS(=O)(=O)C2)n1 (stereo not given)
→ . | -5
CCOC(=O)c1c(C)[nH]c(C)c1S(=O)(=O)NCCCc1ccco1
→ . | 19
C[N+](C)(C)CC(O)CC(=O)O (stereo not given)
→ -0.2 | .
Cc1ccc(Oc2ncccc2C(=O)NCC(=O)O)cc1
→ 0.3 | .
O=C(Cn1cc(I)c(=O)[nH]c1=O)N1CCOCC1
→ 0.5 | 1
CC(C)c1ccc(-c2noc(COC(=O)c3c[nH]c4ccccc34)n2)cc1
→ . | 22
COc1cc(C(C#N)N2CCCCC2)ccc1O (stereo not given)
→ -2.2 | -6
Cc1nnsc1C(=O)NC1CCN(Cc2ccccc2)CC1
→ -1.8 | .
